Lassa entry inh: Lassa virus entry inhibition | Potency, µM (doses to about 37.9 µM), inactives show at the top dose activity change, negative = inhibition, most hits filed as inhibitors | 300,000 compounds, 1.2% hits | Lassa virus pseudotype entry inhibition, cell reporter; control for the full effect not named in the record | AID 540256; active means well fitted inhibition curve with a large enough effect; inconclusive means small, poorly fitted or top-dose-only effect, or effect the other way; inactive means flat fitted curve, though single readings scatter; tested in HEK293 cells; further: on the % scale 0 is the no-effect control and ±100 the full control effect; nearly all actives have a fitted effect of over 50% in size; luciferase read-out
Cruzain inh Det: cruzain (T. cruzi) inhibition with detergent; P25779; purified cruzain, Z-FR-AMC fluorescence, 0.01% Triton; Potency, µM, without a hit: max response, negative = inhibition, actives largely listed as inhibitors; 200,000 compounds, 0.43% hits; AID 1478;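 further: plate controls were neutral wells for no effect and buffer without enzyme for full effect; nearly all actives have a fitted effect of over 40% in size; top concentration of the series not given in the record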
Target sequence (P25779 123-467 limits assumed): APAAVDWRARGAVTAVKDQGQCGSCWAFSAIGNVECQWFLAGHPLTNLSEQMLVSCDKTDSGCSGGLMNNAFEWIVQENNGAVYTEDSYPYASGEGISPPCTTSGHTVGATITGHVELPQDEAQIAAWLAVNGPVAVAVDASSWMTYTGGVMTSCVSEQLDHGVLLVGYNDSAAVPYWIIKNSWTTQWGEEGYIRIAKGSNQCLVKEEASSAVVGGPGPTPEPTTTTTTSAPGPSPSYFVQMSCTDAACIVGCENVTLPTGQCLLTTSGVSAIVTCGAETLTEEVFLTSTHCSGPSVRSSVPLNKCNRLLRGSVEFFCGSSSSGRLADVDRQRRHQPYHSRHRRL
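Enzyme 1.5 nM, Z-FR-AMC 2 uM, NaOAc 100 mM pH 5.5, DTT 5 mM, Triton X-100 0.01%; 15 min RT compound preincubation; kinetic ex360/em450, 60 s delta.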
StopGo reporter: lowers the luciferase signal of an FMDV 2A StopGo reporter. human cells with a luciferase reporter of 2A StopGo recoding; control for the full effect not named in the record. Potency, µM (titrated, usually from 57.9 µM), inactives show at the highest dose signal change, negative = less light. 410,000 compounds, 1.2% hits. AID 1159524; active = well fitted falling curve with a large enough effect; inconclusive = small, poorly fitted or top-dose-only effect; inactive = no such curve, though single readings can be large or run the other way; tested in HEK293T cells; further: on the % scale 0 is the no-effect control and ±100 the full control effect; nearly all actives have a fitted effect of over 45% in size; luciferase light after 4 h
Marburg entry inh: Marburg virus entry inhibition; Marburg virus pseudotyped entry inhibition, cell reporter; control for the full effect not named in the record; about a third of the inactives were read at about 46 µM; AID 540276; Potency, µM (titrated, usually from 37.8 µM), for inactives: at the top dose activity change, negative = inhibition, usual class: inhibitors; 300,000 compounds, 1.8% hits; active = well fitted inhibition curve with a large enough effect; inconclusive = small, poorly fitted or top-dose-only effect, or effect the other way; inactive = flat fitted curve, though single readings scatter; tested in HEK293 cells; about a fifth of its hits are not listed in these tables; further: on the % scale 0 is the no-effect control and ±100 the full control effect; luciferase read-out
SARS PLP yeast: blocks SARS-CoV papain-like protease in a yeast assay | 330,000 compounds, 0.19% hits | S. cerevisiae expressing SARS-CoV PLpro, growth rescue; control for the full effect not named in the record | Potency, µM (doses to about 32.9 µM), for inactives: at the top dose activity, positive = growth rescue; active means well fitted rising curve with a large enough effect; inconclusive means small, poorly fitted or top-dose-only effect; inactive means no such curve, though single readings can be large or run the other way; further: 0% is about no effect; nearly all actives have a fitted effect of over 55% in size; growth read by luminescence after 48 h
RE007 growth inh: less growth of the S. pombe RE007 Vpr strain | 360,000 compounds, 0.21% hits | S. pombe RE007 Vpr strain, BacTiter-Glo ATP luminescence, 24 h; control for the full effect not named in the record | Potency, µM (doses to about 92.2 µM), for the others: at the top dose activity change, negative = less growth; active = well fitted falling curve with a large enough effect; inconclusive = small, poorly fitted or top-dose-only effect; inactive = no such curve, though single readings can be large or run the other way;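 further: on the % scale 0 is the no-effect control and ±100 the full control effect; nearly all actives have a fitted effect of over 50% in size; the assay follows cell death caused by Vpr and the record does not say whether a fall means rescue or toxicity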
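Fission yeast RE007 carrying one integrated HIV-1 vpr copy, seeded at OD 0.01 in PMG+AL medium with 23 nL pinned compound. Grown 24 h at 30 degrees; viability read by BacTiter-Glo luminescence after 5 min.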
NS1 function inh: influenza NS1 inhibition | 270,000 compounds, 0.4% hits | Potency, µM (top dose mostly 46.1 µM), without a hit: at the highest dose activity, positive = more growth | S. cerevisiae slowed by influenza A NS1, growth recovery by OD600; active means well fitted rising curve with a large enough effect; inconclusive means small, poorly fitted or top-dose-only effect; inactive means no such curve, though single readings can be large or run the other way; further: nearly all actives have a fitted effect of over 50% in size
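S. cerevisiae expressing influenza A NS1, grown in glucose, washed, then diluted 1:100 into pH 6.0 -URA galactose medium with 23 nl compound. Growth recovery read as OD600; NS1-free strain serves as control.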
Cruzain inh noDet: cruzain (T. cruzi) inhibition without detergent. purified cruzain, Z-FR-AMC fluorescence, no detergent. Potency, µM, without a hit: max response, negative = inhibition, most hits filed as inhibitors. 200,000 compounds, 2.3% hits;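 further: plate controls were enzyme without inhibitor for no effect and buffer without enzyme for full effect; nearly all actives have a fitted effect of over 40% in size; top concentration of the series not given in the record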
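Purified cruzain at 1.5 nM, pre-incubated 15 min with compound at room temperature in 100 mM sodium acetate pH 5.5, 5 mM DTT, 0.00005% Triton X-100. Reaction started with 2 uM Z-FR-AMC; AMC fluorescence increase over 60 s gives rate.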
The depositor's hits bear a star; ? = inconclusive; . = no result given; [ ] = another dose, or the depositor's remark. Unless noted, the call rests on the fitted dose curve; in most records, active means well fitted curve in the direction sought with a large enough effect; inconclusive means small, poorly fitted or top-dose-only effect, or another doubt; inactive means no such curve, though single readings can be large; an effect the other way counts as inactive or inconclusive. Potency means the concentration at half of the fitted maximal effect.

cpd	SMILES	Marburg entry inh	RE007 growth inh	Lassa entry inh	Cruzain inh noDet	Cruzain inh Det	StopGo reporter	SARS PLP yeast	NS1 function inh
1	S=c1[nH]ncn1NCc1cccc(Br)c1	12%[46.1 µM]	10%	?	.	.	0%	.	.
2	Cc1ccccc1-c1nnc2s/c(=C\c3ccc(N(C)C)cc3)c(=O)n12	.	.	.	1%	3.5%	.	-1%	2%
3	Cc1nnc(SCC(=O)Nc2cc(S(=O)(=O)N3CCCC3)ccc2Cl)s1	?	1%	0%	.	.	-5%	-1%	-7%
4	CC(C)Oc1cccc(-c2cc(C(=O)NC(=S)N(C)c3ccccc3C(=O)O)c3ccccc3n2)c1	?	0%	?	21%	-9.1%	2%	-28%	8%
5	Cc1ccc(C(C)C)c(O)c1	.	11%	.	0%	0.7%	-18%	.	.
6	COc1ccc(N2CCN(S(=O)(=O)CCNC(=O)C(C)Oc3ccccc3)CC2)cc1 (stereo not given)	22%	-17%	-17%[46.1 µM]	.	.	?	0%	.
7	Cc1ccc(C(=O)/C=C/c2cn(CN3CCN(C)CC3)c3ccccc23)cc1	?	?	-4%	-3%	-9.2%	51%[activator]	-32%	-17%
8	CCc1ccc(-n2c(SC(CC)C(=O)N(CC)CC)nc3n[nH]c(C)c3c2=N)cc1 (stereo not given)	.	.	-16%[46.1 µM]	?	-4.1%	?	.	.
9	O=C(c1cc2c(s1)-c1ccccc1OC2)N1CCC2(CC1)OCCO2	-11%	-13%	34%[14.3 µM]	-6%	-28%	48%[activator]	-8%	-5%
10	COC(=O)Cn1c(CCS(=O)(=O)c2ccc(Cl)cc2)nc2ccccc21	-11%	-1%	19%	0%	2.0%	0%	2%	0%
11	CCOc1ccc(CNC(=O)c2cnc3sc(N(CC)CC)nn3c2=O)cc1OC	.	.	-5%[46.1 µM]	10%	-4.6%	-6%	.	.
12	Cc1ccc(-c2nc(S(=O)(=O)c3ccccc3)c(SCC(=O)NC3CCCCC3)o2)cc1	-2%[46.1 µM]	.	?	-5%	-1.5%	8%	.	.
13	COc1ccccc1N1CCN(C(=O)C(C)N(c2ccccc2)S(C)(=O)=O)CC1 (stereo not given)	0%	4%	-16%	2%	6.5%	-3%	8%	7%
14	COc1cc(NC(=O)CCc2nnc3ccc(N4CCCC4)nn23)cc(OC)c1OC	?	-4%	-6%[46.1 µM]	.	.	-3%	1%	5%
15	CC(C)(C)OC(=O)CNC(=O)c1[nH]cnc1C(=O)NC(c1ccccc1)c1ccccc1	.	0%	.	.	.	0%	2%	14µM*
16	CCOC(=O)c1ccc(NC2=CC(c3ccc(F)cc3)N(c3ccc(C(=O)OCC)cc3)C2=O)cc1 (stereo not given)	-3%[46.1 µM]	.	7%[46.1 µM]	3%	1.3%	-16%	.	.
17	CCNC(=S)N(CCc1c(C)[nH]c2ccc(Cl)cc12)Cc1ccco1	?	11%	7.9µM*	.	.	?	-13%	.
18	CSCCC(NS(=O)(=O)c1ccc(Cl)cc1)C(=O)OCC(=O)NC1CCCCC1 (stereo not given)	17%	-8%	5%	8%	-7.7%	10%	0%	-2%
19	O=C(CSc1nc2ccccc2nc1N1CCCC1)Nc1ccc(F)cc1	.	28%	.	.	.	10%	-5%	-8%
20	COc1cc(C(=O)N2CCN(C/C=C/c3ccccc3)CC2)cc(OC)c1OC	-17%	-7%	20%	3%	0.3%	-16%	18%	1%
21	COc1ccc(CNCc2cc(OC)ccc2OC)cc1	.	2%	.	.	.	9%	3%	11%
22	COCCn1ccc2c(OCC(=O)NCc3ccccc3)cccc2c1=O	22%	-2%	1.6µM*	.	.	-1%	2%	.
23	Cc1ccc(SCCC(=O)Nc2c(C)n(C)n(-c3ccccc3)c2=O)cc1	13%	-10%	-10%	2%	1.1%	-10%	?	2%
24	Cc1ccc2nc(/C(C#N)=C/c3cccc(Br)c3)[nH]c2c1	?	.	-12%[46.1 µM]	20µM*	-1.8%	9%	.	.
25	c1ccc(-n2ncc3c(NC4CCCCCC4)ncnc32)cc1	.	-7%	.	.	.	15%	-3%	-6%
26	S=C(NCC1CCCO1)N1CCN(c2ccccc2)CC1 (stereo not given)	?	5%	0%	.	.	13%	-4%	.
27	Cc1ccc(N2CC(C(=O)OCC(=O)Nc3ccccc3F)CC2=O)cc1 (stereo not given)	.	3%	.	.	.	-11%	-1%	-6%
28	CCNC(=O)COc1cccc2ccccc12	0%	-19%	1%	?	-1.7%	4%	-4%	-5%
29	Cc1ccc(Cl)cc1NS(=O)(=O)c1ccc2oc(=O)ccc2c1	-27%[46.1 µM]	15%	.	.	.	50%[activator]	-10%	-13%
30	COc1cc(/C=C2/C(=O)NN(c3ccc(C)c(Cl)c3)C2=O)cc([N+](=O)[O-])c1O	.	-4%	.	.	.	-27%	-2%	9%
31	O=C(NCc1ccccc1)C(c1ccco1)N(C(=O)c1csnn1)c1ccccc1F (stereo not given)	-27%[46.1 µM]	-22%	-8%	.	.	7%	-1%	-6%
32	O=C(O)CCCCCNC(=O)C(=O)C1C(=O)Nc2ccccc21 (stereo not given)	.	9%	.	.	.	0%	-2%	-2%
33	O=C(CCn1cnc2onc(-c3ccc(F)cc3)c2c1=O)Nc1ccc(F)c(Cl)c1	.	.	22%[46.1 µM]	2%	-12%	-30%	.	.
34	COc1ccccc1C(=O)CC(=O)C(=O)Nc1cccc([N+](=O)[O-])c1C	.	36%	.	.	.	-22%	0%	3%
35	COc1ccc(O)cc1	.	9%	.	-5%	6.4%	-20%	-7%	.
36	CSc1ccccc1OCc1cc(C(=O)NCC(C)(C)N2CCOCC2)no1	-1%[46.1 µM]	-13%	?	.	.	?	1%	-7%
37	COc1ccc(C(=O)N2CCC(C(=O)N3CCN(Cc4ccccc4)CC3)CC2)cc1	-1%	-5%	-8%	.	.	-2%	6%	-17%
38	C/C(=N\NC(=O)C(=O)Nc1c(C)n(C)n(-c2ccccc2)c1=O)c1ccncc1	-27%	1%	?	.	.	-8%	0%	-3%
39	C#Cc1ccc(C(=O)Nc2cc(C(N)=O)ccc2N2CCOCC2)cc1	3%	2%	6%	-9%	-0.9%	-14%	6%	11%
40	CCc1nc2ccccc2c(C(=O)OCC(=O)NCc2ccc3c(c2)OCO3)c1C	5%	37%	1%	3%	-5.3%	?	-9%	-4%
41	CCN(CC(=O)Nc1c(F)cccc1F)C(=O)CCC(=O)c1ccc(F)cc1	-9%	?	-5%	.	.	-14%	-10%	.
42	COc1ccc(Nc2c3c(nc4ccccc24)CCCC3)cc1OC	8.9µM*	-16%	-24%	.	.	-25%	7%	.
43	Cc1ccc2oc(=O)c(S(=O)(=O)c3ccc(C(C)(C)C)cc3)cc2c1	-4%[46.1 µM]	.	16%[46.1 µM]	14%	1.2%	-23%	.	.
44	CN(C)c1ccc(NC(=S)c2ccc3ccccc3n2)cc1	.	-12%	.	.	.	21%	-4%	-4%
45	COc1ccc(N(CN2C(=O)c3ccccc3C2=O)C(=O)C(C)C)cc1	8%	-3%	4%	-2%	-1.3%	-8%	4%	-16%
46	O=C(CN(Cc1ccccc1)C(=O)CCC(=O)Nc1ccccn1)NCc1ccc(F)cc1	?	-8%	12%[46.1 µM]	.	.	-27%	-3%	-14%
47	COc1ccc(C2/C(=C(/O)c3ccccc3)C(=O)C(=O)N2c2ccccn2)cc1OC (stereo not given)	9%[46.1 µM]	-4%	6%	.	.	-17%	1%	10%
48	O=C(COC(=O)CNC(=O)C1CCCCC1)Nc1ccc(F)c([N+](=O)[O-])c1	0%	-3%	-3%	.	.	-16%	0%	.
49	C=CCNC(=O)C1=NN(c2c(F)c(F)cc(F)c2F)C(=O)CC1	-2%[46.1 µM]	2%	7%[46.1 µM]	.	.	11%	3%	10%
50	COc1cc(Cl)c(C)cc1NC(=O)CSc1cc(-c2ccccc2)nc(C)n1	-1%[46.1 µM]	.	-5%[46.1 µM]	-8%	-0.6%	-20%	.	.
51	O=C1C(=O)N(CC2CCCO2)C(c2ccccc2[N+](=O)[O-])/C1=C(/O)c1ccccc1 (stereo not given)	0%	7%	13%	.	.	30%	0%	1%
52	Cc1cc(C)nc(SC2CCCCC2NS(=O)(=O)c2ccc(Cl)cc2)n1 (stereo not given)	-15%	-6%	-11%	-7%	-7.4%	-9%	8%	-8%
